ClpP mod = qHTS Assay for Activators of ClpP. Potency, µM (top dose mostly 57.5 µM), for inactives: at the highest dose activity change, negative = active. 340,000 tested, 1.9% active. purified B. subtilis ClpP, FRET peptide cleavage, 20 min. AID 651965, 2013; active = well fitted falling curve with a large enough effect; inconclusive = small, poorly fitted or top-dose-only effect; inactive = no such curve, though single readings can be large or run the other way; also: potency is read from the fitted curve at half-maximal effect; the source files actives as falling curves though it sought activators and does not explain the sign; nearly all actives have a fitted effect of over 65% in size; many hits overshoot -100%
Target sequence (P80244 whole entry, looked up): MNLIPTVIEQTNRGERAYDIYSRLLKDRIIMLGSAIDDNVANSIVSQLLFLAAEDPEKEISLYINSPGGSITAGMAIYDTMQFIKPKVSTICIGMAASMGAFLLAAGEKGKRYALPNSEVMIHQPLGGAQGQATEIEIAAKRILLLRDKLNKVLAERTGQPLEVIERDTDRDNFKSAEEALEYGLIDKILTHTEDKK
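ClpP 10 microg/mL final, pH 8 Tris/KCl buffer with BSA, glycerol, Tween-20; compound pinned in; FRET-FV substrate; RT 20 min; Ex320/Em430; ΔFRET vs ADEP 5.8 microM, DMSO, no enzyme.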
Sfp PPTase inh = Sfp phosphopantetheinyl transferase inhibition | 310,000 tested, 3.5% active | Biochemical Sfp PPTase activity, qHTS | Potency, µM, inactives show max response, negative = inhibition, most hits filed as inhibitors | Q9F4F7; active = well fitted inhibition curve with a large enough effect; inconclusive = small, poorly fitted or top-dose-only effect, or another doubt; inactive = no such curve, though single readings can be large or run the other way;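 also: the enzyme is Sfp with the accession as filed and its product quenches rhodamine fluorescence; potency is read from the fitted curve at half-maximal effect; 0% = enzyme reaction without inhibitor and -100% = no enzyme wells; top concentration of the series not given in the record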
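Reaction rates are the 30-min fluorescence difference (ex 525, em 598 nm) in wells containing 15 nM Sfp, 5 uM rhodamine-CoA and 12.5 uM BHQ-2-YbbR at pH 7.6 with 10 mM MgCl2.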
TRPV1 PAM = human TRPV1 potentiation | TRPV1-expressing cells, Fluo-8 calcium influx, capsaicin EC20 potentiation; host cell line not named in the record; control for the full effect not named in the record | potentiation, % at 8.33 µM | 320,000 tested, 0.02% active | Q8NER1; active means potentiation above 80%; inconclusive means 30% to 80%; inactive means below 30%; also: 0% is about no effect
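Fluo-8 calcium influx in TRPV1-expressing cells, kinetic read (ex 480/em 520 nm). Compound added and read 3 min for agonist activity, followed by capsaicin at EC20 final and 2 min further read for enhancement.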
gsp ag = activates gsp, the McCune-Albright syndrome mutation; gsp mutant cells, cAMP HTRF, 30 min; control for the full effect not named in the record; 340,000 tested, 0.13% active; Potency, µM (top dose mostly 76.9 µM), for inactives: at the highest dose activation (cAMP increase), hits mostly activators; active = well fitted activation curve with a large enough effect; inconclusive = small, poorly fitted or top-dose-only effect, or another doubt; inactive = no such curve, though single readings can be large or run the other way; cell line not stated here;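 also: phosphodiesterase inhibitor Ro 20-1724 added with compounds to block cAMP breakdown; potency is read from the fitted curve at half-maximal effect; nearly all actives have a fitted effect of over 60% in size; about a fifth of the inactives were tested at one dose only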
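Cells stably selected in G418 were plated at 2000/well, grown 16-24 hr, then given compounds in DMSO with the PDE inhibitor […] (300 uM solution added) for 30 min at 37C; cAMP was read by HTRF.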
gsp antagonist = gsp mutant antagonism. gsp-mutant cells, cAMP HTRF, 30 min; control for the full effect not named in the record. Potency, µM (titrated, usually from 76.9 µM), for inactives: at the highest dose activity change, negative = inhibition, hits mostly inhibitors. 340,000 tested, 0.4% active. AID 624288; active = falling curve of any shape with a large fitted effect; inconclusive = falling curve, mostly with a smaller effect; inactive = flat or rising curve; cell line not stated here;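 also: intracellular cAMP measured with PDE inhibitor Ro 20-1724 present during compound exposure; potency is read from the fitted curve at half-maximal effect; % is scaled to controls: 0 for no effect and ±100 for the full control effect; nearly all actives have a fitted effect of over 65% in size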
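HTRF cAMP measurement after 30 min RT detection following 30 min, 37C compound treatment alongside […] (added as 300 uM solution) in G418-selected cells seeded at 2000/well and grown 16–24 h.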
Menin MLL FP FL = displaces fluorescein MLL peptide from human menin; Fluorescence polarization, fluorescein-MLL peptide displacement from menin; FP activity change, % at 61.4 µM; 290,000 tested, under 10 active; AID 1766; inconclusive = falling polarisation curve, or a change in total fluorescence; inactive = total fluorescence flat and polarisation flat or rising; no compound was filed as active; the % refers to the polarisation; negative = inhibition;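 also: % of control where 0% means no effect; inhibitors lower the polarisation; unlabelled MLL peptide was the positive control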
TRPML1 inh = inhibitors of human TRPML1 channel; Q9GZU1; TRPML1-inducible cells, Ca2+ dye fluorescence, FDSS; stronger effect = lower value; inhibition of EC80 agonist-evoked calcium signal; activity change, negative = inhibition, % (test concentration not listed); 390,000 tested, 0.02% active; AID 624415; in the data active means activity change below about -50%; inconclusive means about -30% to -50%; inactive means above about -30%;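 also: stimulus is agonist 54-4 at its EC80 concentration; % is scaled to controls: 0 for no effect and ±100 for the full control effect; compound concentration not given in the record; the text of the record puts the active cut at -80%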
Target sequence (Q9GZU1 whole entry, looked up): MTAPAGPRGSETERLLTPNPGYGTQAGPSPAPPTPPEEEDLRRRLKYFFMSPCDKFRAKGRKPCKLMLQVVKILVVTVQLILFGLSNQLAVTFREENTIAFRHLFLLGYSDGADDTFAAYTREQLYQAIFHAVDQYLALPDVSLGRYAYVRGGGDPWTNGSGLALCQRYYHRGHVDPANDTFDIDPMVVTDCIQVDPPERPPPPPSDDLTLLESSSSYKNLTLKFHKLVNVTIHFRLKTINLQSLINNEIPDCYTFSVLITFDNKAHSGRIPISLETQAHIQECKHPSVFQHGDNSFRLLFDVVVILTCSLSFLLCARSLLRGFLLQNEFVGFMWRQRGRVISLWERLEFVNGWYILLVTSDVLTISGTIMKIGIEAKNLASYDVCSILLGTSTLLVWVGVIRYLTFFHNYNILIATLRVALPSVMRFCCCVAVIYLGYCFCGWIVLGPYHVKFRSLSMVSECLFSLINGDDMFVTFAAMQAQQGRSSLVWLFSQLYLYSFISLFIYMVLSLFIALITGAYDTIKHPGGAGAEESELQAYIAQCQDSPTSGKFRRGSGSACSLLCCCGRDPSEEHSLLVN
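Calcium fluorescence in TRPML1-DL cells induced overnight with Tet: a 110 s read after compound pin addition, then a 110 s antagonist read after challenge with 54-4 at 4 uM final (EC80).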
Numbers without * were called inactive; ? = inconclusive; . = not tested or not shown; & = joins results of further samples; [ ] = dose if it differs, or a comment.

SMILES | ClpP mod | Sfp PPTase inh | TRPV1 PAM | gsp ag | gsp antagonist | Menin MLL FP FL | TRPML1 inh
O=C(NC1CCCC1)c1ccc(S(=O)(=O)N2CCCC2)cc1 | -0.3% | 13% | 7 | 7% | -3% | -2.0 | -19
COc1cccc(/C=C2\CCc3ccccc3C2=O)c1 | -1.0% | -22% | -4 | -17% | -12% | -12 | -10
CCOc1ccc(N(CC(=O)NCCSCc2ccco2)S(=O)(=O)c2ccc(C)cc2)cc1 | 0.0% | -25% | 12 | -81%[inhibitor] | -18% | . | 11
O=C(CSC1CCCCC1)N1CCN(c2ccccc2)CC1 | -1.1% | -20% | -18 | -53%[inhibitor] | 2% | 5.6 | -2
O=c1cn[nH]c2ccccc12 | . | -4% | 3 | 1%[15.4 µM] | 13% | 2.8 | -14
O=C(NCc1ccccn1)c1ccc(NS(=O)(=O)c2ccccc2)cc1 | 0.9% | 10% | 6 | 12%[15.4 µM] | 20% | -4.4 | -5
O=C(O)CCc1ccc(S(=O)(=O)Nc2ccccc2N2CCCCC2)cc1 | -1.6% | . | . | -20% | -5% | . | -9
Cc1cc(C)n2nc(SCC(=O)N3CCCCC3C)nc2n1 (configuration not stated) | -8.3% | . | . | -131% | 1% | . | 9
COC(=O)N1N=C(c2ccccc2)CC1(O)C(F)(F)F (configuration not stated) | -0.1% | 15% | . | 4% | -3% | 1.3 | -1
COc1cc(NC(=O)C2CC(c3cccc(Br)c3)=NO2)cc(OC)c1OC (configuration not stated) | 0.1% | 1% | 6 | -3%[15.4 µM] | -21% | -0.6 | 4
CC(=O)Nc1ccc(Sc2ncccc2C(=O)Nc2ccc(F)cc2)cn1 | 0.4% | 5% | 1 | ? | 4% | -0.6 | -2
CCOC(CCNC(=O)CCC(=O)Nc1ccc2nc(N3CCN(C)CC3)cc(C)c2c1)OCC | . | 8% | 1 | -3% | 6% | -9.1 | -5

6 entries already listed, sorted by the number in Sfp PPTase inh, smallest number first:
Structure | Sfp PPTase inh
CCOc1ccc(N(CC(=O)NCCSCc2ccco2)S(=O)(=O)c2ccc(C)cc2)cc1 | -25%
COc1cccc(/C=C2\CCc3ccccc3C2=O)c1 | -22%
O=c1cn[nH]c2ccccc12 | -4%
CCOC(CCNC(=O)CCC(=O)Nc1ccc2nc(N3CCN(C)CC3)cc(C)c2c1)OCC | 8%
O=C(NC1CCCC1)c1ccc(S(=O)(=O)N2CCCC2)cc1 | 13%
COC(=O)N1N=C(c2ccccc2)CC1(O)C(F)(F)F (configuration not stated) | 15%

The listing continues.
SMILES | ClpP mod | Sfp PPTase inh | TRPV1 PAM | gsp ag | gsp antagonist | Menin MLL FP FL | TRPML1 inh
COc1ccc(S(=O)(=O)N2CCc3ccccc32)cc1C(=O)NCc1ccco1 | 1.7% | . | 22 | -5%[15.4 µM] | -27% | . | 15
O=C(Nc1ccc(Oc2ccccc2)nc1)C1CCN(Cc2ccccc2)CC1 | -0.8% | 11% | 5 | -2% | -13% | . | -2
CS(=O)c1ccccc1COC(=O)Nc1ccc(Cl)cc1 (configuration not stated) | -19% | -23% | -29 | -16% | 5% | -0.3 | 0
CCC(=O)Nc1cccc(NC(=O)c2cccnc2)c1 | -2.0% | 14% | 3 | -18% | -7% | 0.4 | 16
Cn1c(CNC(=O)Nc2cccc(Cl)c2)nnc1SCc1ccccc1 | 3.0% | 3% | 8 | 15% | -8% | 1.2 | 3
CNC(=S)NC1(C)CCS(=O)(=O)C1 (configuration not stated) | . | 19% | -1 | 11%[15.4 µM] | -7% | 1.8 | 3
CCc1nnc(NC(=O)CN2CCN(C3CCCCC3)CC2)s1 | 1.0% | 89µM* | 4 | -40%[inhibitor] | 12% | 2.1 | -18
CCCCc1nc(NCC2CCCO2)c(C#N)c2c1COC(C)(C)C2 (configuration not stated) | 7.9µM* | 1% | 7 | -19% | -2% | 4.1 | -5
CCOC(=O)C(=O)Nc1ccc(OC)c(Cl)c1 | . | 9% | 0 | -6%[15.4 µM] | -1% | 0.2 | -3
COC(=O)C(O)(NC(=O)c1ccncc1)C(F)(F)F (configuration not stated) | -2.8% | 11% | -18 | -12% | 9% | 1.4 | 10
COc1ccc(S(=O)(=O)NC(C)C(=O)NCc2ccc3c(c2)OCO3)cc1OC (configuration not stated) | 1.4% | 9% | 4 | -4%[15.4 µM] | -5% | -6.8 | -5
COc1ccc(-c2cc(C(=O)Nc3cc(C)nn3-c3ccccc3)no2)cc1OC | 0.2%&0.3% | 21% | 10 | 13% | 7% | -0.2 | 1

Another view of part of the listing above.
Order of values: ClpP mod, Sfp PPTase inh, TRPV1 PAM, gsp ag, gsp antagonist, Menin MLL FP FL, TRPML1 inh
> CC(=O)Nc1ccc(Sc2ncccc2C(=O)Nc2ccc(F)cc2)cn1
  0.4%, 5%, 1, ?, 4%, -0.6, -2
> O=C(NCc1ccccn1)c1ccc(NS(=O)(=O)c2ccccc2)cc1
  0.9%, 10%, 6, 12%[15.4 µM], 20%, -4.4, -5

Next compounds
SMILES | ClpP mod | Sfp PPTase inh | TRPV1 PAM | gsp ag | gsp antagonist | Menin MLL FP FL | TRPML1 inh
Cc1ccccc1OCCn1cc(C(=O)C(=O)N2CCOCC2)c2ccccc21 | -0.2% | -7% | ? | 28%[15.4 µM] | -23% | 0.1 | 27
C=CCC1=C/C(=C\c2c(N)n3nc(CC(=O)N4CCOCC4)sc3nc2=O)C=C(OC)C1=O | -2.4% | -4% | -5 | 13% | ? | ? | -5
COc1cccc(C(=O)Nc2c(C(N)=O)oc3ccccc23)c1 | 0.4% | 14% | 17 | ? | -15% | 3.1 | 0
CCc1ccccc1NC(=O)Cn1nc(C)n2cccc2c1=O | -0.6% | 11% | -7 | 2% | 2% | 3.0 | -13
NC(=O)CN1C(=O)C(O)(CC(=O)/C=C\C=C\c2ccccc2)c2ccccc21 (configuration not stated) | -1.0% | -21% | -4 | -11% | 10% | -2.2 | 13
CCOC(=O)c1cnc(-c2ccc(C(F)(F)F)cn2)[nH]c1=O | 0.0% | 45µM* | 11 | -2%[15.4 µM] | -10% | -1.0 | -9
COc1cc2c(cc1OC)-c1cc(Nc3ccccc3)nc(=O)n1CC2 | 0.8% | 9% | -19 | -1%[15.4 µM] | 9% | 12 | -2
CC(=O)c1ccccc1OC(=O)c1ccc(-c2ccccc2)cc1 | 1.1% | . | . | -22% | -15% | . | 7
CCCN(C)C[C@H]1Oc2cc(C#Cc3ccc(F)cc3)ccc2S(=O)(=O)N([C@H](C)CO)C[C@@H]1C | ? | . | . | -7% | . | . | -8
O=C(NC1CCCCC1)c1cccnc1Sc1ccccc1 | . | 14% | 4 | 16% | 12% | 6.6 | 1
O=C(Nc1ccncc1)c1ccc(Cl)c(S(=O)(=O)N2CCc3ccccc32)c1 | . | . | 1 | -9%[15.4 µM] | ? | . | 41
Cc1ccc(-c2noc(CCC(=O)Nc3ccc4c(c3)OCO4)n2)cc1 | -1.2% | 13% | -15 | 22% | -6% | 7.9 | 11
COc1ccccc1N(CC(=O)NCC1CCCO1)C(=O)CNS(=O)(=O)c1ccc(Cl)cc1 (configuration not stated) | -2.5% | 27% | 14 | 13% | 6% | 2.0 | 35
CCOc1cc(C(=O)OC(C)C(=O)Nc2ccc(S(N)(=O)=O)cc2)ccc1OCC(=O)N1CCOCC1 (configuration not stated) | . | . | 16 | -29%[15.4 µM] | 3% | . | -2
COc1ccc(-n2nc(C(=O)NCC(=O)N3CCCCCC3)c3ccccc3c2=O)cc1OC | . | 40%[activator] | 3 | 23% | -3% | 5.6 | -1
O=C(NNC(=O)c1ccc(SCC2CCCO2)c([N+](=O)[O-])c1)c1ccc(F)cc1 (configuration not stated) | 0.2% | 15% | -4 | 4% | -11% | 1.5 | 1
CN(C)c1ccc(/C=C/c2ccc3ccccc3[n+]2C)cc1 | 3.1%&-2.4% | -22% | -1 | 12% | ? | 17 | 6
O=C(N/N=C/c1cccs1)c1ccc(NC(=O)c2ccccc2Cl)cc1 | . | 2% | -12 | -9%[15.4 µM] | 11% | 1.3 | 1
O=C(COC(=O)C1CC1)NCCNC(=O)COC(=O)C1CC1 | . | . | -3 | -20%[15.4 µM] | 13% | . | 26
O=C(CCc1nnc(CCCCc2ccccc2)o1)NC(c1cccnc1)C(F)(F)F (configuration not stated) | 0.1% | 14% | -4 | -21% | 14% | -0.5 | -14
C#CCOCCOCCOCCNc1nc(N2CCN(C(=O)C([C@@H](C)O)n3cc([C@@H](N)CCCCN)nn3)CC2)nc(N2CCN(C(=O)[C@H](CC(N)=O)n3cc([C@@H](N)C(C)C)nn3)CC2)n1 (some centres not stated) | 2.3% | . | . | . | 11% | . | -12
CCOC(=O)c1c(NC(=O)CSc2nc3ccc(C)cc3[nH]2)sc2c1CC(C)(C)NC2(C)C | -5.2% | . | -9 | 17%[15.4 µM] | -2% | . | 1
Cc1ccccc1CC1(CO)CCCN(C(=O)c2ccc3ncccc3c2)C1 (configuration not stated) | . | -3% | 0 | 11%[15.4 µM] | . | 0.1 | 20
COc1cc(OC)c(OC)cc1C#N | -4.6% | 19% | -3 | . | -2% | -3.8 | .
COc1ccc(NC(=O)c2oc3ccccc3c2NC(=O)C2CC2)c(OC)c1 | 2.3% | 12% | -1 | 22% | 2% | . | 1
CCOc1ccccc1NC(=O)CN1c2cccc3cccc(c23)S1(=O)=O | -27% | . | 16 | -12% | -18% | . | 6
Cc1cc(=O)n2nc(N3CCCC3C(=O)Nc3ccc(C(C)C)cc3)sc2n1 (configuration not stated) | 0.0% | 0% | 3 | ? | -15% | ? | 5
COc1ccc(C2=NS(=O)(=O)N(C)C(C(=O)Nc3ccc(C)cc3)=C2)cc1 | -2.3% | 3% | 5 | -105%[inhibitor] | -24% | -6.6 | 10
CC(=O)Nc1ccc(SCCN2CCN(CCc3ccccc3)CCC2=O)cc1 | . | 50µM* | . | . | . | 0.3 | -15
O=C(CN1C(=O)c2ccccc2S1(=O)=O)Nc1ccc(S(=O)(=O)N2CCCCC2)cc1 | -1.7% | 20% | -4 | -31%[inhibitor] | -2% | -0.1 | 6
